Source: PubChem (National Center for Advancing Translational Sciences (NCATS))
EPAC2 antagonist: blocks human EPAC2 exchange factor | Q8WZA2 | EPAC2 GEF exchange of Rap1B-BODIPY-GDP, fluorescence | Potency, µM (doses to about 114 µM), for the others: at the top dose activity, negative = inhibition, usual class: inhibitors | 360,000 compounds, 0.18% hits | AID 720708; also: potency is read from the fitted curve at half-maximal effect; % is scaled to controls: 0 for no effect and ±100 for the full control effect; nearly all actives have a fitted effect of over 45% in size; many of its hits are not listed in these tables
PI5P4Ka inh: PI5P4K alpha (human) kinase inhibition | P48426 | PI5P4Kalpha enzyme, ADP-Glo luminescence, 60 min; hits give low values | max response, % | 330,000 compounds, 1.2% hits | AID 652105; active = max response of -50% or lower; inconclusive = between -30% and -50%; inactive = -30% or higher; also: value at the top dose of about 77 µM; % is scaled to controls: 0 for no effect and ±100 for the full control effect
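PI5P4Kalpha ADP-Glo assay; 5 microM ATP final; 60 min RT reaction; HEPES pH 7.4/EGTA/CHAPS, 5% DMSO; controls lacking substrate or enzyme; luminescent end-point.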
WRN inhibitor: WRN helicase (human) inhibition | WRN helicase unwinding, fluorescent forked duplex, kinetic | AID 651768 | Potency, µM (highest dose often 114 µM), without a hit: at the top dose activity change, negative = inhibition, usual class: inhibitors | 360,000 compounds, 0.46% hits; also: potency is read from the fitted curve at half-maximal effect; % is scaled to controls: 0 for no effect and ±100 for the full control effect; nearly all actives have a fitted effect of over 55% in size
Target sequence (Q14191 whole entry, looked up): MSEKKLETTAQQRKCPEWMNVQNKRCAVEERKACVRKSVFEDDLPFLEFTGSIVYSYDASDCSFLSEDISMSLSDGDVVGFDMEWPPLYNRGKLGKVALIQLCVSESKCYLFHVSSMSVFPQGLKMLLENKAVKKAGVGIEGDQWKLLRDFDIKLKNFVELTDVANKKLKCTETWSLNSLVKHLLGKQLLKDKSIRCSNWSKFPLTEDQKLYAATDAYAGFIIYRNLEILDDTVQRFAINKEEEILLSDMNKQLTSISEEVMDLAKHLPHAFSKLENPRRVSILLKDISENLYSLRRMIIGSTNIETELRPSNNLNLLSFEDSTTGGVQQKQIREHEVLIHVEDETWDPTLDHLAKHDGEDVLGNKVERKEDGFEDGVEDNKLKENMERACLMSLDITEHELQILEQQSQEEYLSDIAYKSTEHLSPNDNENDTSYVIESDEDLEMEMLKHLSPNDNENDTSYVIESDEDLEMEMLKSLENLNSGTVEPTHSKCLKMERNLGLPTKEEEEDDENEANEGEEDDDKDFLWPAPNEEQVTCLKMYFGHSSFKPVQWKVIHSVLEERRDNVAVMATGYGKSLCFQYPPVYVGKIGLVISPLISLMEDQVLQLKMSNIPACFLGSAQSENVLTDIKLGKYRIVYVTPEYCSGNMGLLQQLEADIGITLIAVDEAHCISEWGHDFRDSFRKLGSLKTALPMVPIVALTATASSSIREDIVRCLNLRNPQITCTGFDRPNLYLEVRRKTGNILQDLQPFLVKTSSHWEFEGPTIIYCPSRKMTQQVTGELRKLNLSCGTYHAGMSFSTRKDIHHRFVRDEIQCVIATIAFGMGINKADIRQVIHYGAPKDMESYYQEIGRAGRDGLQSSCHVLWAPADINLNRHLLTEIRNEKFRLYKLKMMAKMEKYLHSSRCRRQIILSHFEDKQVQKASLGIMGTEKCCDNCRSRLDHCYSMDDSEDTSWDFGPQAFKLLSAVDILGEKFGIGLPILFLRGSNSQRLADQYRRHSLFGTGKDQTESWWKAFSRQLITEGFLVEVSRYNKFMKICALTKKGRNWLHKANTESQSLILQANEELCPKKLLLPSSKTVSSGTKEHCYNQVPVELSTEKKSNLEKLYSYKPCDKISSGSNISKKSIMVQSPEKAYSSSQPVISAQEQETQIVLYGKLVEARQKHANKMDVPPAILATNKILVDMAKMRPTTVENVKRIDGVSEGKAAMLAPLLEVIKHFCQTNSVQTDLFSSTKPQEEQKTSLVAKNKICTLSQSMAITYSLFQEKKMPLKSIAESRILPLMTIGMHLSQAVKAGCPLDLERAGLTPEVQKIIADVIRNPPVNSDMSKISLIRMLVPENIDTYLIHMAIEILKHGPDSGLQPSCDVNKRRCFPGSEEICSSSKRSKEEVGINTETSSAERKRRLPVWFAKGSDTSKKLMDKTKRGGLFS
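WRN at 20 nM final preincubated with compound 15 min at room temperature; reaction started with 100 nM fluorophore/quencher forked duplex oligonucleotide and 2 mM ATP final. Unwinding followed kinetically by red fluorescence (ex 525, em 598 nm).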
EPAC1 ag: agonists of human EPAC1; EPAC1 agonist qHTS, biochemical assay; response scale: 100% = response to 6.5 mM cAMP; Potency, µM (titrated, usually from 154 µM), without a hit: at the highest dose activation, hits mostly activators; 360,000 compounds, 0.073% hits; also: potency is read from the fitted curve at half-maximal effect; nearly all actives have a fitted effect of over 60% in size
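Nucleotide exchange assay: 100 nM EPAC1 with 250 nM Rap1B loaded with BODIPY-GDP and 50 uM GDP, room temperature. Fluorescence (480/540 nm) read every 5 min for 30 min; signal change normalized to 6.5 mM cAMP as full agonist.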
EPAC1 antag: antagonists of human EPAC1; O95398; EPAC1 GEF assay, Rap1b-BODIPY-GDP exchange fluorescence; Potency, µM (highest dose often 115 µM), without a hit: at the highest dose activity change, negative = inhibition, actives largely listed as inhibitors; 360,000 compounds, 0.14% hits; AID 720709;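 also: potency is read from the fitted curve at half-maximal effect; plate controls were vehicle for no effect and positive control for full effect; nearly all actives have a fitted effect of over 50% in size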
Active calls of the source: *; ? = inconclusive; . = not tested or not shown; [ ] = remark or other dose. Unless noted, calls follow the shape of the dose curve; as a rule, active = well fitted curve in the direction sought with a large enough effect; inconclusive = small, poorly fitted or top-dose-only effect, or another doubt; inactive = no such curve, though single readings can be large; an effect the other way counts as inactive or inconclusive.

SMILES	EPAC2 antagonist	PI5P4Ka inh	WRN inhibitor	EPAC1 ag	EPAC1 antag
COc1ccc(C2CC(c3ccccc3)=NN2C(=O)CCCC(=O)O)cc1 (stereo not drawn)	5.8%	6.1	1.1%	1.2%	-21.2%
CCOc1ccccc1C1NC(=O)c2ccccc2N1 (stereo not drawn)	12.5%	0.6	-2.2%	6.5%	6.3%
O=C(O)c1cc(NS(=O)(=O)c2cccc3ccccc23)ccc1O	-10.5%	-7.3	0.7%	-0.1%	6.0%
CN(C)S(=O)(=O)c1cccc(C(=O)Nc2ccc3c(c2)CCC3)c1	-4.8%	-4.6	5.4%	-8.4%	-6.8%
NC(=O)c1c(NC(=O)c2ccccc2F)sc2c1CCC2	-12.5%	?	-3.5%	-1.4%	15.5%
O=C(c1ccc(NS(=O)(=O)c2ccccc2)cc1)N1CCN(c2ccccc2)CC1	-1.1%	1.4	2.5%	0.4%	-12.6%
COc1cccc(C(=O)NCCN2CCN(c3ccccc3)CC2)c1	5.4%	-5.3	-0.4%	14.6%	-4.0%
COc1cccc(Nc2ncnc3ccccc23)c1	-1.5%	.	-9.7%	7.8%	1.5%
CC1(C)N([O-])c2cc([N+](=O)[O-])ccc2[N+]1=O	?	?	-15.4%[11.6 µM]	0.8%	70.8µM*
CCN1/C(=C\C(C)=O)Sc2ccc(OC)cc21	-5.7%	.	-8.2%	8.3%	6.0%
CC(=O)Nc1cccc(-c2nnc(-c3ccc(C)cc3)o2)c1	4.8%	-0.5	5.2%	4.1%	11.1%

Some of the entries so far, with bars between the fields:
mol | EPAC2 antagonist | PI5P4Ka inh | WRN inhibitor | EPAC1 ag | EPAC1 antag
COc1ccc(C2CC(c3ccccc3)=NN2C(=O)CCCC(=O)O)cc1 (stereo not drawn) | 5.8% | 6.1 | 1.1% | 1.2% | -21.2%
CCOc1ccccc1C1NC(=O)c2ccccc2N1 (stereo not drawn) | 12.5% | 0.6 | -2.2% | 6.5% | 6.3%
O=C(O)c1cc(NS(=O)(=O)c2cccc3ccccc23)ccc1O | -10.5% | -7.3 | 0.7% | -0.1% | 6.0%
CN(C)S(=O)(=O)c1cccc(C(=O)Nc2ccc3c(c2)CCC3)c1 | -4.8% | -4.6 | 5.4% | -8.4% | -6.8%
NC(=O)c1c(NC(=O)c2ccccc2F)sc2c1CCC2 | -12.5% | ? | -3.5% | -1.4% | 15.5%
O=C(c1ccc(NS(=O)(=O)c2ccccc2)cc1)N1CCN(c2ccccc2)CC1 | -1.1% | 1.4 | 2.5% | 0.4% | -12.6%
COc1cccc(C(=O)NCCN2CCN(c3ccccc3)CC2)c1 | 5.4% | -5.3 | -0.4% | 14.6% | -4.0%
COc1cccc(Nc2ncnc3ccccc23)c1 | -1.5% | . | -9.7% | 7.8% | 1.5%
CC1(C)N([O-])c2cc([N+](=O)[O-])ccc2[N+]1=O | ? | ? | -15.4%[11.6 µM] | 0.8% | 70.8µM*
CCN1/C(=C\C(C)=O)Sc2ccc(OC)cc21 | -5.7% | . | -8.2% | 8.3% | 6.0%

This is a subset (hit frequency here may not be typical).
